# High-throughput results as filed in PubChem BioAssay.
# SARS PLP yeast = qHTS of Yeast-based Assay for SARS-CoV PLP | S. cerevisiae expressing SARS-CoV PLpro, growth rescue; control for the full effect not named in the record | actives 0.19% (n = 330,000) | Potency, µM (highest dose often 32.9 µM), for the others: top-dose activity, positive = growth rescue; further: 0% is about no effect; nearly all actives have a fitted effect of over 55% in size; growth read by luminescence after 48 h
# Marburg entry inh = qHTS for inhibitors of binding or entry into cells for Marburg Virus; Potency, µM (top dose mostly 37.8 µM), for the others: at the top dose activity change, negative = inhibition, most hits filed as inhibitors; Marburg virus pseudotyped entry inhibition, cell reporter; control for the full effect not named in the record; about a third of the inactives were read at about 46 µM; actives 1.8% (n = 300,000); active = well fitted inhibition curve with a large enough effect; inconclusive = small, poorly fitted or top-dose-only effect, or effect the other way; inactive = flat fitted curve, though single readings scatter; tested in HEK293 cells; about a fifth of its hits are not listed in these tables; further: on the % scale 0 is the no-effect control and ±100 the full control effect; luciferase read-out
# RE007 growth inh = qHTS Assay for Inhibitors of the HIV-1 protein Vpr; S. pombe RE007 Vpr strain, BacTiter-Glo ATP luminescence, 24 h; control for the full effect not named in the record; Potency, µM (titrated, usually from 92.2 µM), without a hit: top-dose activity change, negative = less growth; actives 0.21% (n = 360,000); AID 651644, 2012; active = well fitted falling curve with a large enough effect; inconclusive = small, poorly fitted or top-dose-only effect; inactive = no such curve, though single readings can be large or run the other way;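 further: on the % scale 0 is the no-effect control and ±100 the full control effect; nearly all actives have a fitted effect of over 50% in size; the assay follows cell death caused by Vpr and the record does not say whether a fall means rescue or toxicity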
#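 Fission yeast strain RE007, carrying one chromosomally integrated HIV-1 vpr copy, was seeded at OD 0.01 in PMG+AL medium with 23 nL pinned compound. After 24 h at 30 °C and 99% humidity, viability was read by BacTiter-Glo luminescence.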
# Cruzain inh noDet = qHTS Assay for Promiscuous and Specific Inhibitors of Cruzain (without detergent); actives 2.3% (n = 200,000); purified cruzain, Z-FR-AMC fluorescence, no detergent; Potency, µM, inactives show max response, negative = inhibition, usual class: inhibitors; active means well fitted curve in the direction sought with a large enough effect; inconclusive means small, poorly fitted or top-dose-only effect, or another doubt; inactive means no such curve, though single readings can be large; an effect the other way counts as inactive or inconclusive;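 further: plate controls were enzyme without inhibitor for no effect and buffer without enzyme for full effect; nearly all actives have a fitted effect of over 40% in size; top concentration of the series not given in the record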
# Target sequence (P25779 123-467 limits assumed): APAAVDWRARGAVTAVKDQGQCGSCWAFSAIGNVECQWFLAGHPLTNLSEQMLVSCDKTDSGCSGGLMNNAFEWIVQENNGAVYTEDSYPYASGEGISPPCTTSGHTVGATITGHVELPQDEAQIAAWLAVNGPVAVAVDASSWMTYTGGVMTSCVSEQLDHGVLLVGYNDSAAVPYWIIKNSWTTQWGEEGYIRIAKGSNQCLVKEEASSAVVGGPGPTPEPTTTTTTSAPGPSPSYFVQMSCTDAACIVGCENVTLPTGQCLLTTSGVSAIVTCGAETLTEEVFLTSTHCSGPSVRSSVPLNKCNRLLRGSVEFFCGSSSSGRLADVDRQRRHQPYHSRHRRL
#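 Detergent-free condition (0.00005% Triton X-100) in acetate buffer pH 5.5 with DTT. 1.5 nM enzyme and compound were pre-mixed 15 min, then 2 uM Z-FR-AMC substrate added; reaction progress from fluorescence change between first and third reads (60 s).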
# LASV entry inh = qHTS for Inhibitors of binding or entry into cells for Lassa Virus; Potency, µM (doses to about 37.9 µM), without a hit: at the top dose activity change, negative = inhibition, usual class: inhibitors; Lassa virus pseudotype entry inhibition, cell reporter; control for the full effect not named in the record; AID 540256, 2011; actives 1.2% (n = 300,000); active means well fitted inhibition curve with a large enough effect; inconclusive means small, poorly fitted or top-dose-only effect, or effect the other way; inactive means flat fitted curve, though single readings scatter; tested in HEK293 cells; further: on the % scale 0 is the no-effect control and ±100 the full control effect; nearly all actives have a fitted effect of over 50% in size; luciferase read-out
# NS1 inh = qHTS Assay for Inhibitors of Influenza NS1 Protein Function; S. cerevisiae slowed by influenza A NS1, growth recovery by OD600; actives 0.4% (n = 270,000); Potency, µM (top dose mostly 46.1 µM), for inactives: at the highest dose activity, positive = more growth; further: actives are rising curves; nearly all actives have a fitted effect of over 50% in size
#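 Recovery from NS1-induced slow growth read by OD600 in budding yeast switched to galactose assay medium (pH 6.0, -URA) at 1:100 dilution. Compound 23 nl per well; the matching strain lacking NS1 serves as control.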
# 2A StopGo = High Throughput Screening for Foot and Mouth Disease Virus Antivirals. human cells with a luciferase reporter of 2A StopGo recoding; control for the full effect not named in the record. Potency, µM (series often up to 57.9 µM), for the others: at the highest dose signal change, negative = less light. actives 1.2% (n = 410,000). AID 1159524, 2015; active = well fitted falling curve with a large enough effect; inconclusive = small, poorly fitted or top-dose-only effect; inactive = no such curve, though single readings can be large or run the other way; tested in HEK293T cells; further: on the % scale 0 is the no-effect control and ±100 the full control effect; nearly all actives have a fitted effect of over 45% in size; luciferase light after 4 h
# Cruzain inh Det = qHTS Assay for Promiscuous and Specific Inhibitors of Cruzain (with detergent); purified cruzain, Z-FR-AMC fluorescence, 0.01% Triton; Potency, µM, for the others: max response, negative = inhibition, actives largely listed as inhibitors; actives 0.43% (n = 200,000); active means well fitted curve in the direction sought with a large enough effect; inconclusive means small, poorly fitted or top-dose-only effect, or another doubt; inactive means no such curve, though single readings can be large; an effect the other way counts as inactive or inconclusive;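 further: plate controls were neutral wells for no effect and buffer without enzyme for full effect; nearly all actives have a fitted effect of over 40% in size; top concentration of the series not given in the record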
#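 Enzyme 1.5 nM, Z-FR-AMC 2 uM, NaOAc 100 mM pH 5.5, DTT 5 mM, Triton X-100 0.01%; 15 min RT compound preincubation; kinetic ex360/em450, 60 s delta.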
# * = called active by the depositor; ? = inconclusive; . = no result given; [ ] = dose if it differs, or a comment. Unless noted, the call rests on the fitted dose curve; in most records, active means well fitted rising curve with a large enough effect; inconclusive means small, poorly fitted or top-dose-only effect; inactive means no such curve, though single readings can be large or run the other way. Potency means the concentration at half of the fitted maximal effect. Not a hit list. Share with any hit: about 4.5%.
smiles,SARS PLP yeast,Marburg entry inh,RE007 growth inh,Cruzain inh noDet,LASV entry inh,NS1 inh,2A StopGo,Cruzain inh Det
COc1ccc(CNC(=O)CCc2nc3cc(S(=O)(=O)N(C)C)ccc3n2C)cc1OC,1%,9%,-10%,.,-2%,-1%,-6%,.
CCN(CCNC(=O)CN(C)S(=O)(=O)c1cccc2nsnc12)c1ccccc1,-6%,12%,-2%,9%,-6%,-3%,-24%,-2.1%
CCOc1ccc(NC(=S)NC(=O)c2cnn(CC)c2)c([N+](=O)[O-])c1,-12%,-12%[46.1 µM],-4%,.,-23%[46.1 µM],-8%,-15%,.
O=C(CSc1nnc(-c2ccncc2)n1-c1ccc(Cl)cc1)N1CCOCC1,0%,16%,-3%,0%,10%,-13%,.,-0.2%
COc1ccc(C(=O)NNC(=S)NC(=O)c2ccc(Br)o2)cc1OC,0%,?,8%,.,-20%,6%,?,.
O=C(Nc1cccc([N+](=O)[O-])c1)C(=O)N1CCCCC1,0%,.,-15%,.,.,1%,46%[activator],.
CCS(=O)(=O)N1N=C(c2ccccc2)CC1c1ccc2nccnc2c1 (configuration not stated),4%,?,3%,6%,6%,5%,0%,-5.7%
C#CCOCCOCCOCCNc1nc(N2CCN(C(=O)[C@H]([C@@H](C)CC)n3cc(CCC(=O)O)nn3)CC2)nc(N2CCN(C(=O)[C@H](C)n3cc(CCCN=C(N)N)nn3)CC2)n1,9%,0%,-14%,1%,1%,3%,-16%,-4.2%
Cc1ccc(Cn2cnc3c(nnn3Cc3ccc(Cl)cc3)c2=O)cc1,4%,-21%,-4%,-16%,-28%,3%,0%,2.0%
COc1cc(-c2nc(-c3ccc4c(c3)-c3ccccc3S4(=O)=O)c(-c3ccccc3)[nH]2)cc(OC)c1O,9%,?,9%,-14%,?,?,-4%,1.2%
CCN(CC)S(=O)(=O)c1cccc(C(=O)N[C@H](C(=O)Nc2nc3ccccc3s2)C(C)C)c1,29%,-20%,3%,4%,?,5%,36%[activator],-7.6%
C=CCOc1cccc(C2C(C(=O)c3ccco3)=C(O)C(=O)N2CCN(CC)CC)c1 (configuration not stated),-6%,?,5%,0%,0%,-6%,13%,-9.0%

# Additional results follow:
smiles,SARS PLP yeast,Marburg entry inh,RE007 growth inh,Cruzain inh noDet,LASV entry inh,NS1 inh,2A StopGo,Cruzain inh Det
Cc1ccc(S(=O)(=O)NNC(=O)c2cnn(-c3ccccc3)c2C(F)(F)F)cc1,1%,.,21%,.,.,-4%,10%,.
CCc1ccc(NC(=O)Cn2cc([N+](=O)[O-])nc2C)cc1,0%,.,2%,.,.,14%,-22%,.
COc1ccc(C(C(=O)NC2CCCCC2)N(C(=O)CCl)c2ccc(C)cc2)cc1 (configuration not stated),10%,?,4%,?,?,-8%,?,0.3%
O=C(CSCc1ccccc1)Nc1ccc(S(=O)(=O)N2CCOCC2)cc1,8%,-14%,1%,11%,-9%,-14%,26%,-3.1%
C/C(CC(C)C)=N\NC(=O)Nc1ccccc1,-5%,19%,4%,8%,21%,7%,13%,3.7%
O=C(NCc1cn(-c2ccccc2)nc1-c1ccc(F)cc1)c1cccc([N+](=O)[O-])c1,10%,?,-3%,?,-15%,4%,6%,-5.6%
Cc1c(NC(=O)c2ccc(Br)o2)c(=O)n(-c2ccccc2)n1C,6%,-14%,-11%,-24%,0%,15%,.,0.2%
CCOCc1cc(CN2CCCC(CNC(=O)c3ccco3)C2)ccc1OC (configuration not stated),0%,-1%[46.1 µM],-5%,.,12%[46.1 µM],-9%,0%,.
O=C(NNC1=NCCC1)c1ccc(Br)cc1,10%,?,-12%,8%,-3%,8%,-18%,-0.5%
O=C(CCS(=O)(=O)c1cccc2nsnc12)NCc1ccccc1,-11%,7%,22%,-1%,-1%,3%,8%,-4.4%
Cc1ccn2c(=O)cc(COc3cccc(NC(=O)Nc4cccc(Cl)c4C)c3)nc2c1,.,.,.,13%,-6%[46.1 µM],.,0%,1.8%
CC1=C(C(=O)NC(C)CCc2ccccc2)C2(CCC(C)CC2)OC1=O (configuration not stated),-5%,?,14%,.,0%[46.1 µM],.,3%,.

# Continued.
smiles,SARS PLP yeast,Marburg entry inh,RE007 growth inh,Cruzain inh noDet,LASV entry inh,NS1 inh,2A StopGo,Cruzain inh Det
CN(CC(=O)Nc1ncn[nH]1)S(=O)(=O)c1ccc(Cl)cc1,12%,3%[46.1 µM],-5%,.,1%,-6%,0%,.
Cc1ccccc1C1CC(c2ccccc2OC(F)F)Nc2ncnn21 (configuration not stated),-3%,1%,-4%,-2%,-25%,0%,-22%,-8.2%
CCOc1ccc(S(=O)(=O)N2CCN(C(=O)c3cc(S(=O)(=O)N4CCOCC4)ccc3C)CC2)cc1,-9%,-6%,-7%,.,-4%,.,-28%,.
CCOc1ccc(C(=O)c2oc3ccccc3c2NC(=O)c2cc(-c3ccc(C)cc3)on2)cc1,.,-1%[46.1 µM],.,-2%,16%[46.1 µM],.,-26%,-0.6%
CC(C)(C)c1ccc(-c2nnc(NC(=O)c3ccccc3)s2)cc1,-3%,3%,-7%,?,-2%,12%,.,-7.9%
O=C(Cn1cc2c(n1)CCCC2)NCC1CCCO1 (configuration not stated),1%,5%,-2%,3%,.,2%,-5%,0.2%
COc1cc(-c2nnc(SCC(=O)N(C)C3CCCCC3)o2)cc(OC)c1OC,.,-4%[46.1 µM],.,-25%,0%[46.1 µM],.,0%,-14%
COc1ccc(NC(=S)Nc2cc(C(F)(F)F)ccc2F)cc1,-1%,16%[46.1 µM],-5%,.,?,-7%,0%,.
CC1Cc2ccccc2N1C(=O)CN(C)CC(=O)Nc1ccc(F)cc1 (configuration not stated),-12%,4%,-16%,.,12%,.,-6%,.
O=C(Cn1nnc(-c2ccccc2)n1)NNC(=O)c1ccccc1,1%,2%[46.1 µM],13%,.,-24%,4%,-8%,.
CCC1(C)Cc2c(sc3nnn(CC(=O)Nc4cccc5ccccc45)c(=O)c23)CO1 (configuration not stated),-2%,?,-1%,-16%,?,0%,-21%,0.2%
O=C1NC2(NN1c1ccccc1)C1CC3CC(C1)CC2C3 (configuration not stated),16%,0%,25%,-10%,-11%,-3%,2%,4.8%

# Next part
smiles,SARS PLP yeast,Marburg entry inh,RE007 growth inh,Cruzain inh noDet,LASV entry inh,NS1 inh,2A StopGo,Cruzain inh Det
O=C(c1cnc(N2CCCCC2)c2ccccc12)N1CCN(c2ccc(Cl)cc2)CC1,.,.,.,-2%,-3%[46.1 µM],.,?,-19%
CCOc1ccc(C(=O)NCCc2csc(-c3cccnc3)n2)cc1,.,.,.,-1%,11%[46.1 µM],.,-2%,-7.3%
CC(C)Cn1c(-c2ccccc2)nc(=S)c2c1CCCC2,-1%,?,-7%,10%,7%,1%,-17%,2.6%
CC1=C(C(=O)Nc2ccc(Cl)cc2)C(c2ccccc2)n2ncc(C(=O)Nc3ccccc3)c2N1 (configuration not stated),.,?,.,?,?,.,-14%,-10%
O=C(Nc1ccccc1C(=O)N1CCCC1)c1cccc(S(=O)(=O)N2CCCCCC2)c1,-1%,-3%,0%,5%,-28%,1%,-12%,-1.0%
O=C(/C=C/c1ccc(Br)o1)NCCCN1CCOCC1,5%,.,-10%,.,.,13%,16%,.
CC(CCc1ccccc1)NS(=O)(=O)c1ccccc1 (configuration not stated),-5%,?,3%,1%,-1%,-50%,1%,-2.4%
Clc1ccc(NCc2cccnc2)cc1,-3%,?,4%,.,4%,5%,8%,.
O=C(CN1C(=O)COc2ccc(S(=O)(=O)N3CCCC3)cc21)N1CCN(c2ccccc2F)CC1,.,-15%[46.1 µM],.,3%,?,.,0%,-2.0%
COc1ccc(C2C(C(=O)c3cc4cccc(OC)c4o3)=C(O)C(=O)N2CCCN(C)C)cc1OC (configuration not stated),-1%,-4%,.,-3%,.,-29%,.,-0.1%
O=C(Cc1ccccc1)Nc1ccc(SC(F)F)cc1,-39%,17%,3%,0%,-3%,-19%,48%[activator],-8.1%
CC(C)N1CC(C(=O)Nc2ccc(Br)c(Cl)c2)CC1=O (configuration not stated),2%,?,9%,-5%,-13%,-19%,-8%,-2.2%

# The list continues.
smiles,SARS PLP yeast,Marburg entry inh,RE007 growth inh,Cruzain inh noDet,LASV entry inh,NS1 inh,2A StopGo,Cruzain inh Det
Cc1ccc(C)c(Cn2c(C3CC(=O)N(c4ccccc4C)C3)nc3ccccc32)c1 (configuration not stated),.,?,.,30%,-4%[46.1 µM],.,-18%,-4.4%
O=C(NNC(=O)c1ccccc1Br)c1ccccc1Cl,2%,9%[46.1 µM],-1%,.,-3%[46.1 µM],.,6%,.
COc1ccc(CN2C(=O)NC(=O)/C(=C\c3cc(OC)c(OC)c(OC)c3)C2=O)cc1,0%,0%[46.1 µM],4%,.,-2%,.,-8%,.
Cc1ccc(NC(=S)NCCO)c(C)c1,-3%,0%,-19%,8%,1%,7%,6%,7.6%
CCCCS(=O)(=O)N1C2=NC(C(=O)OC)=C(C(=O)OC)[C@@H]3N(C)c4ccc(OC)cc4[C@]23C[C@H]1C(=O)OC,-1%,.,1%,.,.,-11%,-4%,.
O=C(CNC(=O)c1ccncc1)N/N=C/c1cccc([N+](=O)[O-])c1,1%,11%[46.1 µM],-2%,.,18%[46.1 µM],.,-13%,.
COc1ccc(NCC(=O)N/N=C/C=C\c2ccccc2)cc1,-18%,3%,-11%,-20%,?,26%,15%,-6.8%
COCCNc1nc(N)c([N+](=O)[O-])c(Nc2ccc(F)cc2)n1,-1%,-29%,0%,.,-1%,-9%,8%,.
O=S(=O)(O)c1ccc(SCc2ccccc2)nc1,.,-19%,-12%,.,-11%,.,3%,.
COc1ccc(-c2n[nH]c3c2cnc2cc(OC)c(OC)cc23)cc1,.,.,.,?,-2%[46.1 µM],.,0%,-6.3%
Cc1[nH]n(C(C)(C)C)c(=O)c1Sc1ccccc1,-31%,9%,-9%,13%,-2%,-3%,-18%,2.7%
